Assay outcomes: PubChem, National Center for Advancing Translational Sciences (NCATS)
Cruzain Triton = blocks cruzain activity in presence of Triton detergent; P25779; purified cruzain, Z-FR-AMC fluorescence, 0.01% Triton; Potency, µM, for inactives: max response, negative = inhibition, actives largely listed as inhibitors; 0.43% of 200,000 active; AID 1478; active = well fitted curve in the direction sought with a large enough effect; inconclusive = small, poorly fitted or top-dose-only effect, or another doubt; inactive = no such curve, though single readings can be large; an effect the other way counts as inactive or inconclusive;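 also: plate controls were neutral wells for no effect and buffer without enzyme for full effect; nearly all actives have a fitted effect of over 40% in size; top concentration of the series not given in the record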
Target sequence (P25779 123-467 limits assumed): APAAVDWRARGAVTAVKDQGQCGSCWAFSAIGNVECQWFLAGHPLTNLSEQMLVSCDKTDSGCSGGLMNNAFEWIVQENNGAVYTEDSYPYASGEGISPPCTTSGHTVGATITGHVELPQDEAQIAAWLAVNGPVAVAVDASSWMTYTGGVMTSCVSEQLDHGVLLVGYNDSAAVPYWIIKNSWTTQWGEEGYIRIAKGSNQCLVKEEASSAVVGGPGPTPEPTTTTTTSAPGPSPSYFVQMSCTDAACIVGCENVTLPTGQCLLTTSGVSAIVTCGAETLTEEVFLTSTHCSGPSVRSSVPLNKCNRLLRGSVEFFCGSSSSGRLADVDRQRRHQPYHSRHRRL
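Sodium acetate buffer (100 mM, pH 5.5) containing 5 mM DTT and 0.01% Triton X-100 hosted 1.5 nM cruzain and test compound for 15 min at room temperature. Cleavage of 2 uM Z-FR-AMC was then tracked by fluorescence.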
SARS PLP yeast = inhibitors of SARS-CoV papain-like protease in yeast; S. cerevisiae expressing SARS-CoV PLpro, growth rescue; control for the full effect not named in the record; 0.19% of 330,000 active; Potency, µM (series often up to 32.9 µM), for inactives: at the top dose activity, positive = growth rescue; also: 0% is about no effect; nearly all actives have a fitted effect of over 55% in size; growth read by luminescence after 48 h
NS1 function inh = inhibitors of influenza NS1 protein function; 0.4% of 270,000 active; AID 2326; S. cerevisiae slowed by influenza A NS1, growth recovery by OD600; Potency, µM (titrated, usually from 46.1 µM), for inactives: at the top dose activity, positive = more growth; also: actives are rising curves; nearly all actives have a fitted effect of over 50% in size
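A cell-based growth assay was used: compounds that relieve NS1-induced slow growth of budding yeast raise OD600. Assay medium was yeast nitrogen base with ammonium sulphate and -URA supplement, pH 6.0, with 2% galactose.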
Cruzain inh noDet = blocks cruzain activity in detergent-free assay. P25779. purified cruzain, Z-FR-AMC fluorescence, no detergent. Potency, µM, for the others: max response, negative = inhibition, most hits filed as inhibitors. 2.3% of 200,000 active. AID 1476; active = well fitted curve in the direction sought with a large enough effect; inconclusive = small, poorly fitted or top-dose-only effect, or another doubt; inactive = no such curve, though single readings can be large; an effect the other way counts as inactive or inconclusive;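 also: plate controls were enzyme without inhibitor for no effect and buffer without enzyme for full effect; nearly all actives have a fitted effect of over 40% in size; top concentration of the series not given in the record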
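Purified cruzain at 1.5 nM, pre-incubated 15 min with compound at room temperature in 100 mM sodium acetate pH 5.5, 5 mM DTT, 0.00005% Triton X-100. Reaction started with 2 uM Z-FR-AMC; AMC fluorescence increase over 60 s gives rate.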
StopGo reporter = FMDV 2A StopGo reporter, luciferase signal | human cells with a luciferase reporter of 2A StopGo recoding; control for the full effect not named in the record | Potency, µM (highest dose often 57.9 µM), for the others: top-dose signal change, negative = less light | 1.2% of 410,000 active | AID 1159524; active = well fitted falling curve with a large enough effect; inconclusive = small, poorly fitted or top-dose-only effect; inactive = no such curve, though single readings can be large or run the other way; tested in HEK293T cells; also: % is scaled to controls: 0 for no effect and ±100 for the full control effect; nearly all actives have a fitted effect of over 45% in size; luciferase light after 4 h
Lassa entry inh = blocks Lassa virus binding to or entry into cells | 1.2% of 300,000 active | Potency, µM (doses to about 37.9 µM), for inactives: at the top dose activity change, negative = inhibition, hits mostly inhibitors | AID 540256 | Lassa virus pseudotype entry inhibition, cell reporter; control for the full effect not named in the record; active means well fitted inhibition curve with a large enough effect; inconclusive means small, poorly fitted or top-dose-only effect, or effect the other way; inactive means flat fitted curve, though single readings scatter; tested in HEK293 cells; also: % is scaled to controls: 0 for no effect and ±100 for the full control effect; nearly all actives have a fitted effect of over 50% in size; luciferase read-out
RE007 growth inh = less growth of the S. pombe RE007 Vpr strain | S. pombe RE007 Vpr strain, BacTiter-Glo ATP luminescence, 24 h; control for the full effect not named in the record | Potency, µM (highest dose often 92.2 µM), inactives show at the top dose activity change, negative = less growth | 0.21% of 360,000 active | AID 651644; active = well fitted falling curve with a large enough effect; inconclusive = small, poorly fitted or top-dose-only effect; inactive = no such curve, though single readings can be large or run the other way;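 also: % is scaled to controls: 0 for no effect and ±100 for the full control effect; nearly all actives have a fitted effect of over 50% in size; the assay follows cell death caused by Vpr and the record does not say whether a fall means rescue or toxicity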
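Fission yeast strain RE007, carrying one chromosomally integrated HIV-1 vpr copy, was seeded at OD 0.01 in PMG+AL medium with 23 nL pinned compound. After 24 h at 30 °C and 99% humidity, viability was read by BacTiter-Glo luminescence.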
MARV entry inh = inhibitors of Marburg virus binding or cell entry | Marburg virus pseudotyped entry inhibition, cell reporter; control for the full effect not named in the record; about a third of the inactives were read at about 46 µM | Potency, µM (series often up to 37.8 µM), without a hit: at the highest dose activity change, negative = inhibition, most hits filed as inhibitors | 1.8% of 300,000 active | AID 540276; active = well fitted inhibition curve with a large enough effect; inconclusive = small, poorly fitted or top-dose-only effect, or effect the other way; inactive = flat fitted curve, though single readings scatter; tested in HEK293 cells; about a fifth of its hits are not listed in these tables; also: % is scaled to controls: 0 for no effect and ±100 for the full control effect; luciferase read-out
Starred values were filed as active, the others as inactive; u = inconclusive; x = no result given; & = joins results of further samples; [ ] = another dose, or the depositor's remark. Unless noted, calls follow the shape of the dose curve; as a rule, active means well fitted rising curve with a large enough effect; inconclusive means small, poorly fitted or top-dose-only effect; inactive means no such curve, though single readings can be large or run the other way. Potency is read from the fitted curve at half-maximal effect.

Compound	Cruzain Triton	SARS PLP yeast	NS1 function inh	Cruzain inh noDet	StopGo reporter	Lassa entry inh	RE007 growth inh	MARV entry inh
CC(C)CCNC(=O)c1cc(S(=O)(=O)N2CCc3ccccc32)cn1C	x	2%	7%	x	u	x	6%	x
COc1cc2oc3ccccc3c2cc1N(CC(=O)N(C)C)S(=O)(=O)c1ccccc1	-0.1%	x	4%	u	38%[activator]	u	12%	u
C=CCN1C(=O)NC(=O)/C(=C\c2ccc(-c3ccccc3[N+](=O)[O-])o2)C1=O	x	-1%	0%	x	u	5%	-1%	-14%[46.1 µM]
COCCCNC(=O)c1cc(OC)c(OC)c(OC)c1	3.4%	0%	1%	-2%	-17%	-10%	24%	16%
CCOC(=O)c1c(C)n(C)c2ccc(OC(=O)c3ccc([N+](=O)[O-])cc3)cc12	-0.5%	-13%	3%	u	-11%	24%	1%	7%
CCCCn1nc2cc(C(=O)NCc3ccc(OC)cc3)ccc2c1OCC	-0.7%	-4%	-9%	5%	13%	x	7%	x
CC(C)=CCC/C(C)=C/C=N/NC(=O)c1ccccc1[N+](=O)[O-]	-6.7%	-13%	0%	-11%	4%	-24%	2%	-9%
COc1cccc(CCNS(=O)(=O)CCNC(=O)c2cccc(OC)c2)c1	x	-3%	x	x	27%	-3%	-3%	-3%
CSc1cnnc2ccccc12	x	x	x	x	-12%	-1%	1%	2%
Cc1oc2nc(SCC(=O)Nc3ccc(S(N)(=O)=O)cc3)nc(NC(=O)c3ccccc3)c2c1C	-6.7%	9%	6%	-9%	u	u	-9%	u
O=C(Nc1cccc(S(=O)(=O)NC2=NCCC2)c1)c1ccccc1F	x	6%	x	x	26%	0%	6%	2%[46.1 µM]
Cc1occc1C(=O)NCCc1cccc(Cl)c1	-5.9%	-30%	-118%	-5%	3%	4%	-23%	21%
Cc1c(C)c2cc(Cl)c(O)c(CN3CCCC(C)C3)c2oc1=O (stereo not given)	u	2%	5%	u	-13%	7%	-5%	0%
CC1CCCN(c2ccc([N+](=O)[O-])cc2C(=O)c2ccccc2)C1 (stereo not given)	-9.7%	-27%	-6%	0%	u	u	15%	u
Cc1cccn2c(=O)c(/C=C(\C#N)S(=O)(=O)c3ccc(Cl)cc3)c(N3CCC(C(N)=O)CC3)nc12	1.8%	15%	0%	u	-18%	9%	-6%	4%
COc1ccc2c(c1)CCc1c-2n[nH]c1C(=O)NCCC(C)C	x	-1%	2%	x	0%	x	4%	x
Cn1c(=O)[nH]c(=O)c2c1nc(N1CCN(Cc3ccccc3)CC1)n2CCSc1ncccn1	2.7%	-3%	3%	3%	-10%	x	2%	1%
CCOc1cc(N2CCOCC2)c(OCC)cc1NC(=O)Cc1ccccc1OC	1.0%	6%	5%	u	-1%	-23%	5%	3%
CSCc1cc(N(C)c2ccccc2)nc(-c2ccccc2)n1	x	-7%	-32%	x	-24%	x	6%	x
C=CCN(CC=C)S(=O)(=O)c1ccc(NC(=S)NC(=O)/C=C/c2ccc(C)cc2)cc1	-1.0%	x	6%	25µM*	u	u	20%	-28%
OC1(c2ccccc2)CCNC2CCCCC21 (stereo not given)	x	0%	-11%	x	-17%	-2%[46.1 µM]	0%	u
CCCn1c(SCC(=O)NC(C)c2ccccc2)n[nH]c1=O (stereo not given)	x	1%	x	x	-16%	25%	14%	-17%
Cc1ccc(NC(=O)C2CCCC2)c(Br)c1	x	x	x	x	0%	18%[46.1 µM]	-2%	14%[46.1 µM]
Cc1nn(-c2cc(C(F)(F)F)ccc2Cl)c2nc(C(Cl)(Cl)Cl)[nH]c(=O)c12	x	-1%	-23%	x	u	-38%[46.1 µM]	16%	u
Cc1ccccc1NC(=O)CSc1nnc(-c2ccco2)n1N	x	x	x	x	-13%	22%	-12%	8%[46.1 µM]

5 compounds from above, arranged by molar mass, descending.
Compound	Cruzain Triton	SARS PLP yeast	NS1 function inh	Cruzain inh noDet	StopGo reporter	Lassa entry inh	RE007 growth inh	MARV entry inh
Cn1c(=O)[nH]c(=O)c2c1nc(N1CCN(Cc3ccccc3)CC1)n2CCSc1ncccn1	2.7%	-3%	3%	3%	-10%	x	2%	1%
CCCCn1nc2cc(C(=O)NCc3ccc(OC)cc3)ccc2c1OCC	-0.7%	-4%	-9%	5%	13%	x	7%	x
CSCc1cc(N(C)c2ccccc2)nc(-c2ccccc2)n1	x	-7%	-32%	x	-24%	x	6%	x
CCCn1c(SCC(=O)NC(C)c2ccccc2)n[nH]c1=O (stereo not given)	x	1%	x	x	-16%	25%	14%	-17%
COCCCNC(=O)c1cc(OC)c(OC)c(OC)c1	3.4%	0%	1%	-2%	-17%	-10%	24%	16%

Some of the entries so far, with values under each structure:
The line under a structure holds: Cruzain Triton	SARS PLP yeast	NS1 function inh	Cruzain inh noDet	StopGo reporter	Lassa entry inh	RE007 growth inh	MARV entry inh
CC(C)=CCC/C(C)=C/C=N/NC(=O)c1ccccc1[N+](=O)[O-]
  -6.7%	-13%	0%	-11%	4%	-24%	2%	-9%
COc1ccc2c(c1)CCc1c-2n[nH]c1C(=O)NCCC(C)C
  x	-1%	2%	x	0%	x	4%	x

Other results:
Compound	Cruzain Triton	SARS PLP yeast	NS1 function inh	Cruzain inh noDet	StopGo reporter	Lassa entry inh	RE007 growth inh	MARV entry inh
CCCCn1c(-c2cccs2)nc2oc3ccccc3c(=O)c2c1=O	x	0%	8%	x	-11%	15%	2%	u
Cc1nn(Cc2cccc(C(=O)Nc3ccn(Cc4ccccc4)n3)c2)c(C)c1[N+](=O)[O-]	-0.5%	-2%	3%	-7%	u	-18%	-7%	5%
O=C(COc1ccc(Cl)cc1)Nc1nc(-c2cccs2)cs1	-7.0%	2%	-31%	u	u	u	u	-18%
Cn1nccc1C(=O)N1CCCC(Nc2ccc(F)cc2)C1 (stereo not given)	x	0%	4%	x	-3%	x	8%	x
CCOCCCNC(=O)CN1CCN(Cc2ccc(Cl)cc2)C1=O	x	1%	5%	x	8%	u	-3%	2%
CCC(=O)NC(=S)Nc1ccc(NC(=O)c2ccc([N+](=O)[O-])cc2Cl)cc1	1.4%	10%	0%	1%	-5%	-10%	x	24%
COc1ccc(C2C(=O)c3ccccc3C2=O)cc1OC	x	-2%	x	x	-42%	-19%[46.1 µM]	-9%	u
O=C(NCc1ccccc1Cl)c1ccc(CS(=O)(=O)c2ccc(Br)cc2)o1	-5.3%	x	x	5%	-18%	-24%[46.1 µM]	x	-5%[46.1 µM]
O=C(O)c1cccc(S(=O)(=O)N2CCCC(c3nc4c(nnn4Cc4ccccc4Cl)c(=O)[nH]3)C2)c1 (stereo not given)	x	-1%	20%	x	0%	24%[46.1 µM]	2%	4%[46.1 µM]
CCC(C)N1CCN(C(=O)C2CCN(S(=O)(=O)c3c(C)noc3/C=C/c3ccco3)CC2)CC1 (stereo not given)	x	-1%	11%	x	-13%	x	11%	x
CCOC(=O)CC1OC(=O)c2cc3c(cc21)C(=O)OC3CC(=O)OCC (stereo not given)	x	0%	2%	x	-2%	8%	-22%	-26%
Cc1nc(NC(=O)CCCC(=O)Nc2nc(C)c(C)s2)sc1C	5.4%	-2%	5%	-3%	34%	u	8%	u
COCCNC(=O)Nc1cc(C(=O)NCc2ccc(C(C)C)cc2)ccc1N1CCCC1	-6.9%	x	x	u	-14%	1%[46.1 µM]	x	x
O=C(COC(=O)/C=C/c1ccc(OC(F)F)cc1)NC1CCCC1	x	-5%	x	x	-23%	0%	-11%	16%
Cc1ccc(NC(=O)C2CCC(=O)N2C(=O)OCc2ccccc2)cc1 (stereo not given)	x	0%	1%	x	-5%	-11%[46.1 µM]	2%	u
CSc1ccccc1NC(=O)C1=CC(c2ccc3c(c2)OCO3)=NS(=O)(=O)N1C	-1.9%	x	x	12%	-3%	7%[46.1 µM]	x	0%[46.1 µM]
COc1ccc(NS(=O)(=O)c2ccc(NC(=O)c3ccc(Br)cc3)cc2)nn1	x	0%	-2%	x	-25%	15%	-5%	u
O=C(Nc1ccc(N2CCN(C(=O)c3ccccc3)CC2)c(Cl)c1)c1ncn[nH]1	x	0%	7%	x	-1%	u	-3%	-21%[46.1 µM]
COc1ccccc1-c1ccc(SCC(=O)NCCc2ccccc2)nn1	x	1%	x	x	-3%	u	10%	u
N#C/C(=N\Nc1cccc(F)c1)C(=N)N1CCCCCC1	x	-1%	x	x	-9%	-10%[46.1 µM]	6%	u
Cc1cccc(-n2nnc(C(=O)NCc3ccccn3)c2N)c1	-3.4%	-4%	-3%	1%	12%	2%	19%	12%
O=C(NCC1CCCO1)c1nc2c(nnn2Cc2ccccc2Cl)c(=O)[nH]1 (stereo not given)	0.1%	28%	2%	1%	x	-3%	-4%	-16%
COCC(=O)Nc1ccc(OCc2ccccc2)cc1	0.7%	-5%	7%	6%	35%[activator]	5%	-11%	u
CCOc1ccc(OCC)c(NS(=O)(=O)c2ccc3[nH]c(=O)ccc3c2)c1	0.6%	x	x	u	u	-21%[46.1 µM]	x	x
O=C(COc1ccc(-n2cnnn2)cc1)Nc1ccc(Br)cc1F	x	1%	x	x	-4%	-7%	-4%	-7%

Compound	Cruzain Triton	SARS PLP yeast	NS1 function inh	Cruzain inh noDet	StopGo reporter	Lassa entry inh	RE007 growth inh	MARV entry inh
COc1ccc2cc(C(c3nnnn3C3CCCCC3)N3CCCCCC3)c3nnnn3c2c1 (stereo not given)	x	x	-31%	x	11%	-1%	-4%	-4%&6%
Nc1ccc(C(=O)n2c3ccccc3c3ccccc32)cc1	-12%	u	12%	25µM*	u	u	-11%	4µM*
CS(=O)(=O)c1ccc(C(=O)OCC(=O)N2CCCc3ccccc32)cc1	x	1%	x	x	-13%	0%	-9%	5%
O=C(CSc1ccc2nnc(-c3cccc(F)c3)n2n1)N1CCCc2ccccc21	-2.7%	-4%	5%	-29%	-16%	1%	5%	-1%
CN(C)CCNC(=O)Cc1c(C(=O)O)n(C)c2ccccc12	6.5%	0%	-6%	8%	x	x	x	x
